Screens: PubChem BioAssay, several laboratories
E coli growth: E. coli growth inhibition, primary screen, OD600. Escherichia coli growth, 23 h; hits give low values. OD600 absorbance (concentration not given with the values). 330,000 compounds, 0.21% hits. AID 1053175, 2014;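 active means OD600 absorbance below the run mean of sample wells minus 3.6 SD, in any replicate, cut at about 0.56 in these data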;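 further: stock transfer was 300 nL into about 60 µL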
FGF22 binding: binders of human FGF22 protein, primary screen, FGF22 synaptogenesis inhibitor project, biophysical, thermal shift, single point. AID 651658, 2012. Fibroblast growth factor 22 (Homo sapiens), Q9HCT0. calls only at 9.99 µM. 340,000 compounds, 1.5% hits. recombinant FGF22 thermal shift, SYPRO orange fluorescence; percent of sucrose octasulfate shift, DMSO zero;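 active means melting point raised past a set limit in the mean and every replicate; three in four hits are not shown here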
Target sequence (Q9HCT0 whole entry, looked up): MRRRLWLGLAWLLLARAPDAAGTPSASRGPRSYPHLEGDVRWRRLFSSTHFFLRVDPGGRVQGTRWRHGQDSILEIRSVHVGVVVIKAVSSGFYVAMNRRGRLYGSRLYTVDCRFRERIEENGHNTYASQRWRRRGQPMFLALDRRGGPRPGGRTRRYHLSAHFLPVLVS
T cruzi inh: inhibitors of intracellular T. cruzi growth, primary screen, luminescence, NIH3T3 host cells. T. cruzi beta-gal in NIH3T3, 90 h. AID 1885, 2009. 300,000 compounds, 1.4% hits. inhibition, % (concentration not given with the values);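 active means mean inhibition across valid replicates above about 55%, limit read from the data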;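 further: signal also drops with host cell toxicity which is not excluded here; 0% = plate median of DMSO wells and 100% = zero luminescence signal; higher percent means less beta-gal luminescence so fewer parasites; stock transfer was 50 nL into about 50 µL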
A1 inh: caspase 3/7 activation in MEF A1-2A-BIM cells, primary screen, A1 inhibitor project, cell-based, luminescence, HTS | Caspase-Glo 3/7 luminescence, 3 h; percent of clofoctol response, vehicle zero | 330,000 compounds, 0.066% hits | caspase activation, % (concentration not given with the values);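 active means over half of replicate activation scores above 10%, or exactly half above 10 with the replicate mean above 10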;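 further: wells of about 30 µL received 50 nL stock; many hits fall short of the cut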
Beta cell apopt: inhibitors of cytokine-induced beta cell apoptosis, primary screen, luminescence. INS-1E cytokine-induced death, ATP luminescence, 48 h; percent of positive-control rescue, neutral wells zero. protection from apoptosis, % (concentration not given with the values). AID 435005, 2010. 300,000 compounds, 0.8% hits;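 active means all replicates at 75% or more, or half of them and the mean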;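 further: 0% = cytokine-treated negative control wells and 100% = positive control rescue; higher means more ATP so stronger rescue from cytokine killing; wells of about 40 µL received 100 nL stock; the first replicate is given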
UCH37 inh: inhibitors of human UCH37 deubiquitinase, primary screen, biochemical, Ub-AMC cleavage, fluorescence; Ubiquitin carboxyl-terminal hydrolase isozyme L5 (Homo sapiens), Q9Y5K5; purified proteasome/UCH37; inhibition, % (concentration not given with the values); 330,000 compounds, 0.33% hits; AID 588478, 2011;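 active means mean of two replicates above 20%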;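 further: 0% = compound-free wells with enzyme and 100% = wells lacking proteasome; stock transfer was 100 nL into about 20 µL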
Target sequence (Q9Y5K5 whole entry, looked up): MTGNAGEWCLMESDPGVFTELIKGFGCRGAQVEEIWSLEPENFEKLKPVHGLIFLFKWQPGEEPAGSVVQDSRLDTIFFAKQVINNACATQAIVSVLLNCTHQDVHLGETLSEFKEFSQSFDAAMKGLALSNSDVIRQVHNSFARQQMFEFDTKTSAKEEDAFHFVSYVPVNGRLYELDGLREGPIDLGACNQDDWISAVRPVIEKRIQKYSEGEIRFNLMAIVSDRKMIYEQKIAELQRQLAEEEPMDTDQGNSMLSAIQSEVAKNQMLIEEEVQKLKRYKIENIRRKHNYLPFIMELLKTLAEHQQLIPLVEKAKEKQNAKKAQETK
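system = Proteasome-associated human UCH37 deubiquitinase | amount = 0.15 nM proteasome as dispensed | medium = pH 7.4 Tris-HCl (50 mM) with ovalbumin, ATP-MgCl2, DTT | incubation = 30 min preincubation with enzyme, 25 min cleavage at room temperature | detection = AMC fluorescence 355/460 nm | read-out basis = percent inhibition | controls = no-proteasome and no-compound wells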
rRNA inh HTS: reduced GFP signal of wild-type E. coli, primary screen, bacterial rRNA inhibitor project, GFP/RFP fluorescence, OD600, single point; E. coli WT GFP vs humanized-ribosome RFP mutants, 24 h; hits give low values; DMSO median 0, no signal -100; GFP signal change (wild-type ribosome), % (concentration not given with the values); 350,000 compounds, 1.6% hits;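 active means significant combined selectivity score with lowered wild-type GFP, culture density cut under 30%, mutant RFP and density less affected; inactive means any of these conditions unmet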; further: one replicate is shown; some compounds called inactive have numbers as strong as hits
AF4-AF9 inh: inhibitors of AF4 peptide binding to AF9, primary screen, biochemical, AlphaScreen, biotin-AF4 peptide, FLAG-AF9, single point; 350,000 compounds, 0.47% hits; Protein AF-9 (Homo sapiens), P42568; AID 651704, 2012; inhibition, % at 10 µM;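 active means every replicate reaching a set inhibition limit, whatever the replicate mean, cut at about 25% in these data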;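 further: 0% = plate neutral control median and 100% = total signal loss; the record names both 10 and 1 µM as test concentration; the first replicate is given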
Target sequence (P42568 whole entry, looked up): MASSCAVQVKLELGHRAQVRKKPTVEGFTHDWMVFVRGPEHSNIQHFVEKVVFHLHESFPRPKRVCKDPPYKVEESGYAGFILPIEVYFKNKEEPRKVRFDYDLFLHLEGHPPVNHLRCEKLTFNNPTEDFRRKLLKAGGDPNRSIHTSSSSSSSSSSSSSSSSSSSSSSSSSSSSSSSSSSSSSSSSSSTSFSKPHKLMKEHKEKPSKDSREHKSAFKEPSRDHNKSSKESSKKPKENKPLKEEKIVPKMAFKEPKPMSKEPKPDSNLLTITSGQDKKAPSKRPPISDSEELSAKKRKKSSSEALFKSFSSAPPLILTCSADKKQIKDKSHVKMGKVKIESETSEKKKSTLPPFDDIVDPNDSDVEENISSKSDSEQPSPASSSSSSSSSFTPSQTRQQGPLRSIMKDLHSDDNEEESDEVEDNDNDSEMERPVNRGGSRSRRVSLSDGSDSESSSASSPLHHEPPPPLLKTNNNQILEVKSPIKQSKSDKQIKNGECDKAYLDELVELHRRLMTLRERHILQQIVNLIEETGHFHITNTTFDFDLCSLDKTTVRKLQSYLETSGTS
rRNA inh HTS OD600: recorded beside rRNA inh HTS, whose call it bears; OD600 change, %; measured here: OD600 growth;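 optical density of the mix in the first replicate; 0 = DMSO median and -100 = no signal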
rRNA inh HTS RFP: further read-out of rRNA inh HTS, marked with its call; RFP signal change, %; measured here: RFP humanized mutant strains;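 first replicate; 0 = DMSO median and -100 = no signal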
Numbers without * were called inactive.

Preview, 3 compounds:
Screening Cc1nc2ccc([N+](=O)[O-])cc2s1 returned E coli growth 0.7, FGF22 binding inactive, T cruzi inh 1, A1 inh 0.5, Beta cell apopt -9, UCH37 inh 4.6, rRNA inh HTS 24, AF4-AF9 inh -0.1, rRNA inh HTS OD600 18 and rRNA inh HTS RFP 1.6.
For O=S(=O)(Cc1ccccc1)NCC1CCCN(Cc2ccc3nonc3c2)C1 (stereo not given) the results were E coli growth 0.65, FGF22 binding inactive, T cruzi inh 46, A1 inh 0.4, Beta cell apopt -5, UCH37 inh -2.6, rRNA inh HTS 4, AF4-AF9 inh 1.7, rRNA inh HTS OD600 16 and rRNA inh HTS RFP 4.4.
For O=C(Cc1ccccc1)NCc1ccccn1 the results were E coli growth 0.64, T cruzi inh -15, A1 inh -0.4, Beta cell apopt 0, UCH37 inh -0.1, rRNA inh HTS 8, AF4-AF9 inh -1.3, rRNA inh HTS OD600 1 and rRNA inh HTS RFP -0.2.

Main list, from the start:
Screening Cc1nc2ccc([N+](=O)[O-])cc2s1 returned E coli growth 0.7, FGF22 binding inactive, T cruzi inh 1, A1 inh 0.5, Beta cell apopt -9, UCH37 inh 4.6, rRNA inh HTS 24, AF4-AF9 inh -0.1, rRNA inh HTS OD600 18 and rRNA inh HTS RFP 1.6.
For O=S(=O)(Cc1ccccc1)NCC1CCCN(Cc2ccc3nonc3c2)C1 (stereo not given) the results were E coli growth 0.65, FGF22 binding inactive, T cruzi inh 46, A1 inh 0.4, Beta cell apopt -5, UCH37 inh -2.6, rRNA inh HTS 4, AF4-AF9 inh 1.7, rRNA inh HTS OD600 16 and rRNA inh HTS RFP 4.4.
For O=C(Cc1ccccc1)NCc1ccccn1 the results were E coli growth 0.64, T cruzi inh -15, A1 inh -0.4, Beta cell apopt 0, UCH37 inh -0.1, rRNA inh HTS 8, AF4-AF9 inh -1.3, rRNA inh HTS OD600 1 and rRNA inh HTS RFP -0.2.
For Cn1nnnc1SCC(=O)NCc1ccco1 the results were E coli growth 0.73, T cruzi inh 2, A1 inh 1.2, Beta cell apopt -3 and UCH37 inh 3.2.
`CCOC(=O)Cn1c(=O)oc2cc(S(=O)(=O)N3CCn4c3nc3ccccc34)ccc21` gave E coli growth 0.75, FGF22 binding inactive, T cruzi inh -2, A1 inh 0.5, Beta cell apopt 1, UCH37 inh 6.5, rRNA inh HTS 1, AF4-AF9 inh 1.1, rRNA inh HTS OD600 6 and rRNA inh HTS RFP -1.3.
`CCC(C)NS(=O)(=O)c1ccc(OCC(=O)N2CCCCC2)cc1` (stereo not given) gave E coli growth 0.69, T cruzi inh 0, A1 inh -0.5, Beta cell apopt -1 and UCH37 inh 1.7.
For CC(NC(=O)COC(=O)CCC(=O)c1ccc(Cl)cc1)c1ccccc1 (stereo not given) the results were E coli growth 0.69, FGF22 binding inactive, A1 inh -0.1, Beta cell apopt -8, UCH37 inh 5.2, rRNA inh HTS -7, AF4-AF9 inh -0.5, rRNA inh HTS OD600 -11 and rRNA inh HTS RFP 8.6.
`O=C(CSc1nc2ccccc2[nH]1)Nc1c(F)cccc1F` gave E coli growth 0.7, T cruzi inh 1, A1 inh 1.6 and UCH37 inh -0.5.
`Cc1cccn2c(=O)c3cc(C(=O)NCC4CCCO4)c(=N)n(CCc4ccccc4)c3nc12` (stereo not given) gave E coli growth 0.71, FGF22 binding inactive, T cruzi inh 41, A1 inh 0.7, Beta cell apopt 18, UCH37 inh inactive, rRNA inh HTS 9, AF4-AF9 inh -2.0, rRNA inh HTS OD600 12 and rRNA inh HTS RFP 0.0.
`S=C(Nc1ccc(Br)cc1Cl)N1CCN(c2ccccn2)CC1` gave E coli growth 0.73, FGF22 binding inactive, T cruzi inh -25, A1 inh -0.5, Beta cell apopt -5, UCH37 inh 2.0, rRNA inh HTS 8, AF4-AF9 inh -1.0, rRNA inh HTS OD600 2 and rRNA inh HTS RFP 0.8.
`Cc1cc2c(c(=O)n1Cc1ccc3c(c1)OCO3)C(c1cccnc1)C(C#N)=C(N)O2` (stereo not given) gave E coli growth 0.73, T cruzi inh 61*, A1 inh 0.2, Beta cell apopt -4 and UCH37 inh 4.9.
Screening CCCCOc1ccc(OCCCC)c2c1NC1(N2)C(=O)N(C(C)=O)c2ccccc21 returned E coli growth 0.75, T cruzi inh 27, A1 inh -0.5, Beta cell apopt 6 and UCH37 inh 3.9.
`Cc1ccc(NC(=O)CCC(=O)NNC(=O)C(C)(C)C)c(C)c1` gave E coli growth 0.7, FGF22 binding inactive, T cruzi inh -18, A1 inh 0.4, Beta cell apopt -2, UCH37 inh 5.0, rRNA inh HTS 10, AF4-AF9 inh 5.6, rRNA inh HTS OD600 6 and rRNA inh HTS RFP 1.0.
For CC(Cn1cncn1)C(=O)N1CCN(S(=O)(=O)c2ccccc2)CC1 (stereo not given) the results were E coli growth 0.69, FGF22 binding inactive, T cruzi inh -20, A1 inh 0.2, Beta cell apopt 6, UCH37 inh 2.7, rRNA inh HTS -32, AF4-AF9 inh 1.6, rRNA inh HTS OD600 -39 and rRNA inh HTS RFP -1.6.
`CC(C)(C)c1ccc(OCC(=O)OCCNC(=O)c2cccnc2)cc1` gave E coli growth 0.72, T cruzi inh -10, A1 inh 1.3, Beta cell apopt -2 and UCH37 inh 2.0.
C=CCNC(=O)c1ccc(Sc2ccc(C)cc2)c([N+](=O)[O-])c1 was read as E coli growth 0.7, T cruzi inh 20, A1 inh -0.7, Beta cell apopt 2 and UCH37 inh 2.4.
Screening CCOC(=O)C1(S(=O)(=O)c2ccc(Cl)cc2)CCN(Cc2ccc(C)cc2)CC1 returned E coli growth 0.7, T cruzi inh 32, A1 inh 0.2, Beta cell apopt 5 and UCH37 inh -0.7.
`COC(C[C@H]1O[C@H]1C(=O)[C@H](C)OCc1ccccc1)OC` gave FGF22 binding inactive, T cruzi inh -19, A1 inh 1.9, Beta cell apopt -5, UCH37 inh -2.0, rRNA inh HTS 5, AF4-AF9 inh -54, rRNA inh HTS OD600 17 and rRNA inh HTS RFP -0.4.
For COc1ccccc1-n1cnc2cc(C(=O)N3CCOCC3)ccc21 the results were E coli growth 0.64, FGF22 binding inactive, T cruzi inh 3, A1 inh -0.3, Beta cell apopt -6, UCH37 inh 0.4, rRNA inh HTS 2, AF4-AF9 inh -3.6, rRNA inh HTS OD600 -4 and rRNA inh HTS RFP -0.4.
`CC1CN(CCOCCOc2ccccc2-c2ccccc2)CC(C)O1` (stereo not given) gave E coli growth 0.67, FGF22 binding inactive, T cruzi inh -9, A1 inh 0.0, UCH37 inh 3.7, rRNA inh HTS -8, AF4-AF9 inh 2.5, rRNA inh HTS OD600 -5 and rRNA inh HTS RFP -5.2.
`CCOC(=O)C1(Cc2cccc(Cl)c2)CCCN(C(=O)c2cc(C)[nH]n2)C1` (stereo not given) gave E coli growth 0.67, FGF22 binding inactive, T cruzi inh 15, A1 inh -1.9, Beta cell apopt -1, UCH37 inh 0.5, rRNA inh HTS -6, AF4-AF9 inh -1.4, rRNA inh HTS OD600 -9 and rRNA inh HTS RFP 0.2.
Screening CN(CC(CC(=O)Nc1nncs1)c1ccccc1)S(=O)(=O)c1ccc(Br)cc1 (stereo not given) returned E coli growth 0.73, FGF22 binding inactive, T cruzi inh 14, A1 inh 0.5, Beta cell apopt -2, UCH37 inh 2.0, rRNA inh HTS -4, AF4-AF9 inh 0.3, rRNA inh HTS OD600 -10 and rRNA inh HTS RFP 1.1.
`C=CCN([C@H](C(=O)OC)C(C)C)S(=O)(=O)CCNCc1ccccc1` gave FGF22 binding inactive, UCH37 inh 1.3, rRNA inh HTS 2, AF4-AF9 inh -1.1, rRNA inh HTS OD600 -7 and rRNA inh HTS RFP -5.9.
Screening CCOc1ccc(NC(=O)CN(c2ccc(C)cc2)S(=O)(=O)c2c(C)nn(C)c2C)cc1 returned E coli growth 0.71, FGF22 binding inactive, T cruzi inh 7, A1 inh 0.2, Beta cell apopt 17, UCH37 inh 3.6, rRNA inh HTS 8, AF4-AF9 inh -0.8, rRNA inh HTS OD600 14 and rRNA inh HTS RFP -2.6.
For CCC1(CC)NC(=O)N(CC(=O)N2CCN(c3ccccc3F)CC2)C1=O the results were E coli growth 0.67, FGF22 binding inactive, A1 inh 0.6, Beta cell apopt -3, UCH37 inh 0.0, rRNA inh HTS 3, AF4-AF9 inh -1.5, rRNA inh HTS OD600 10 and rRNA inh HTS RFP 0.6.
`COc1cccc(CNC(=O)CCS(=O)(=O)Cc2ccc(C)cc2)c1` gave E coli growth 0.69, T cruzi inh 23, A1 inh 0.7, Beta cell apopt 0, UCH37 inh 1.0, rRNA inh HTS 6, AF4-AF9 inh 0.7, rRNA inh HTS OD600 9 and rRNA inh HTS RFP 2.2.
`Cc1cc(=O)oc2c(C)c(OC(C)C(=O)NC(Cc3c[nH]c4ccc(O)cc34)C(=O)O)ccc12` (stereo not given) gave E coli growth 0.74, FGF22 binding inactive, T cruzi inh -6, A1 inh 1.1, Beta cell apopt 2, UCH37 inh -15, rRNA inh HTS 2, AF4-AF9 inh 0.1, rRNA inh HTS OD600 1 and rRNA inh HTS RFP -7.3.
`COc1ccc(N2CCN(C(=O)c3ccccc3NC(=O)c3ccccc3)CC2)cc1` gave E coli growth 0.7, FGF22 binding inactive, T cruzi inh -5, A1 inh -0.7, Beta cell apopt -2, UCH37 inh 6.1, rRNA inh HTS 5, AF4-AF9 inh -4.2, rRNA inh HTS OD600 0 and rRNA inh HTS RFP 3.3.
Screening COc1cc(C(=O)NC2CCN(Cc3ccccc3)CC2)cc(Cl)c1OC returned E coli growth 0.66, FGF22 binding inactive, T cruzi inh 17, A1 inh 0.5, Beta cell apopt -5, UCH37 inh 3.4, rRNA inh HTS 7, AF4-AF9 inh 1.7, rRNA inh HTS OD600 10 and rRNA inh HTS RFP 0.4.
`CN(C)C(=O)CCc1ccc2c3c([nH]c2c1)[C@]1(CCC2CCCC2)[C@@H](C(=O)N2CCOCC2)C[C@H](CC(=O)NC(C)(C)C)C(=O)N1CC3` gave E coli growth 0.69, FGF22 binding inactive, UCH37 inh 3.7, rRNA inh HTS 4, AF4-AF9 inh -1.9, rRNA inh HTS OD600 -1 and rRNA inh HTS RFP 4.9.

Reprinted at random: two compounds from above.
Screening COc1cc(C(=O)NC2CCN(Cc3ccccc3)CC2)cc(Cl)c1OC returned E coli growth 0.66, FGF22 binding inactive, T cruzi inh 17, A1 inh 0.5, Beta cell apopt -5, UCH37 inh 3.4, rRNA inh HTS 7, AF4-AF9 inh 1.7, rRNA inh HTS OD600 10 and rRNA inh HTS RFP 0.4.
Screening CN(CC(CC(=O)Nc1nncs1)c1ccccc1)S(=O)(=O)c1ccc(Br)cc1 (stereo not given) returned E coli growth 0.73, FGF22 binding inactive, T cruzi inh 14, A1 inh 0.5, Beta cell apopt -2, UCH37 inh 2.0, rRNA inh HTS -4, AF4-AF9 inh 0.3, rRNA inh HTS OD600 -10 and rRNA inh HTS RFP 1.1.

The list is partial; count on the stated rates, not on these rows.
